Bioassay records: PubChem BioAssay, National Center for Advancing Translational Sciences (NCATS)
MARV entry inh – Marburg virus entry inhibition | Marburg virus pseudotyped entry inhibition, cell reporter; control for the full effect not named in the record; about a third of the inactives were read at about 46 µM | Potency, µM (titrated, usually from 37.8 µM), without a hit: at the highest dose activity change, negative = inhibition, most hits filed as inhibitors | hit rate 1.8% among 300,000; active = well fitted inhibition curve with a large enough effect; inconclusive = small, poorly fitted or top-dose-only effect, or effect the other way; inactive = flat fitted curve, though single readings scatter; tested in HEK293 cells; about a fifth of its hits are not listed in these tables; note: % is set by controls: 0 for no effect and ±100 for the full control effect; luciferase read-out
2A StopGo – lowers the luciferase signal of an FMDV 2A StopGo reporter; human cells with a luciferase reporter of 2A StopGo recoding; control for the full effect not named in the record; Potency, µM (top dose mostly 57.9 µM), inactives show at the highest dose signal change, negative = less light; hit rate 1.2% among 410,000; AID 1159524; active = well fitted falling curve with a large enough effect; inconclusive = small, poorly fitted or top-dose-only effect; inactive = no such curve, though single readings can be large or run the other way; tested in HEK293T cells; note: % is set by controls: 0 for no effect and ±100 for the full control effect; nearly all actives have a fitted effect of over 45% in size; luciferase light after 4 h
RE007 growth inh – less growth of the S. pombe RE007 Vpr strain. S. pombe RE007 Vpr strain, BacTiter-Glo ATP luminescence, 24 h; control for the full effect not named in the record. Potency, µM (titrated, usually from 92.2 µM), without a hit: top-dose activity change, negative = less growth. hit rate 0.21% among 360,000; active = well fitted falling curve with a large enough effect; inconclusive = small, poorly fitted or top-dose-only effect; inactive = no such curve, though single readings can be large or run the other way;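 note: % is set by controls: 0 for no effect and ±100 for the full control effect; nearly all actives have a fitted effect of over 50% in size; the assay follows cell death caused by Vpr and the record does not say whether a fall means rescue or toxicity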
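Fission yeast RE007 carrying one integrated HIV-1 vpr copy, seeded at OD 0.01 in PMG+AL medium with 23 nL pinned compound. Grown 24 h at 30 degrees; viability read by BacTiter-Glo luminescence after 5 min.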
Cruzain noTriton – cruzain (T. cruzi) inhibition without detergent; P25779; purified cruzain, Z-FR-AMC fluorescence, no detergent; Potency, µM, inactives show max response, negative = inhibition, most hits filed as inhibitors; hit rate 2.3% among 200,000; AID 1476;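 note: plate controls were enzyme without inhibitor for no effect and buffer without enzyme for full effect; nearly all actives have a fitted effect of over 40% in size; top concentration of the series not given in the record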
Target sequence (P25779 123-467 limits assumed): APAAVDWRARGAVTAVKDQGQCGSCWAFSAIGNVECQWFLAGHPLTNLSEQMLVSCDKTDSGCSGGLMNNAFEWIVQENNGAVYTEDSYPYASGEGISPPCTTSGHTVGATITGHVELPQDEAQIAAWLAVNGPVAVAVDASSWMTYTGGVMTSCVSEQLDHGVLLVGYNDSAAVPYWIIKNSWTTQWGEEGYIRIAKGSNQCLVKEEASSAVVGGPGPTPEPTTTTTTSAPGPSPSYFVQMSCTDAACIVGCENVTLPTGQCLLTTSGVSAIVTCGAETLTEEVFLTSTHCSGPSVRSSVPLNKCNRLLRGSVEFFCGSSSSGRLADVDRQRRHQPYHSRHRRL
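Detergent-free condition (0.00005% Triton X-100) in acetate buffer pH 5.5 with DTT. 1.5 nM enzyme and compound were pre-mixed 15 min, then 2 uM Z-FR-AMC substrate added; reaction progress from fluorescence change between first and third reads (60 s).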
Cruzain Triton – inhibitors of Trypanosoma cruzi cruzain with detergent | AID 1478 | P25779 | purified cruzain, Z-FR-AMC fluorescence, 0.01% Triton | Potency, µM, for the others: max response, negative = inhibition, actives largely listed as inhibitors | hit rate 0.43% among 200,000;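 note: plate controls were neutral wells for no effect and buffer without enzyme for full effect; nearly all actives have a fitted effect of over 40% in size; top concentration of the series not given in the record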
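Steps: dispense cruzain (1.5 nM final) in acetate buffer pH 5.5 with DTT and 0.01% Triton X-100; pin-transfer compounds; incubate 15 min RT; add Z-FR-AMC (2 uM final); read fluorescence every 30 s, using the 60 s intensity change.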
SARS PLpro yeast – SARS-CoV PLP inhibition in yeast; S. cerevisiae expressing SARS-CoV PLpro, growth rescue; control for the full effect not named in the record; hit rate 0.19% among 330,000; Potency, µM (series often up to 32.9 µM), without a hit: at the top dose activity, positive = growth rescue; active means well fitted rising curve with a large enough effect; inconclusive means small, poorly fitted or top-dose-only effect; inactive means no such curve, though single readings can be large or run the other way; note: 0% is about no effect; nearly all actives have a fitted effect of over 55% in size; growth read by luminescence after 48 h
NS1 function inh – blocks influenza NS1 protein function; S. cerevisiae slowed by influenza A NS1, growth recovery by OD600; Potency, µM (series often up to 46.1 µM), for the others: at the highest dose activity, positive = more growth; hit rate 0.4% among 270,000; active means well fitted rising curve with a large enough effect; inconclusive means small, poorly fitted or top-dose-only effect; inactive means no such curve, though single readings can be large or run the other way; note: nearly all actives have a fitted effect of over 50% in size
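A cell-based growth assay was used: compounds that relieve NS1-induced slow growth of budding yeast raise OD600. Assay medium was yeast nitrogen base with ammonium sulphate and -URA supplement, pH 6.0, with 2% galactose.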
LASV entry inh – inhibitors of Lassa virus binding or cell entry; Lassa virus pseudotype entry inhibition, cell reporter; control for the full effect not named in the record; AID 540256; Potency, µM (highest dose often 37.9 µM), without a hit: at the top dose activity change, negative = inhibition, usual class: inhibitors; hit rate 1.2% among 300,000; active means well fitted inhibition curve with a large enough effect; inconclusive means small, poorly fitted or top-dose-only effect, or effect the other way; inactive means flat fitted curve, though single readings scatter; tested in HEK293 cells; note: % is set by controls: 0 for no effect and ±100 for the full control effect; nearly all actives have a fitted effect of over 50% in size; luciferase read-out
* = called active by the depositor; ? = inconclusive; nt = not tested or not shown; & = joins results of further samples; [ ] = remark or other dose. Unless noted, calls come from the whole dose curve; as a rule, active = well fitted curve in the direction sought with a large enough effect; inconclusive = small, poorly fitted or top-dose-only effect, or another doubt; inactive = no such curve, though single readings can be large; an effect the other way counts as inactive or inconclusive. Potency is the fitted concentration of half-maximal effect.

SMILES	MARV entry inh	2A StopGo	RE007 growth inh	Cruzain noTriton	Cruzain Triton	SARS PLpro yeast	NS1 function inh	LASV entry inh
CC/C(=N\O)c1c(O)c2c(n(-c3ccccc3)c1=O)CCCC2	-5%	-14%	-9%	-19%	-20%	10%	-16%	8%
COc1ccc(OC)c(S(=O)(=O)N2CCN(Cc3ccccc3)CC2)c1	nt	19%	-10%	nt	nt	8%	4%	nt
Fc1cccc(/C=N/N=C/c2cccc(F)c2)c1	?	35%[activator]	3%	8%	9.1%	2%	-4%	?
O=C(COC(=O)c1ccc(Cl)cc1O)Nc1cccnc1Cl	?	28%	-7%	-6%	-2.3%	12%	7%	26%
CC12CCCC(CC(=O)O)(C1)NC(=O)C2 (stereo not given)	7%[46.1 µM]	7%	5%	nt	nt	nt	nt	?
Cc1ccc(NC(CNS(=O)(=O)c2ccc(Cl)cc2)c2ccccc2)cc1 (stereo not given)	?	-12%&-16%	-16%	2%&1%	-8.7%&2.0%	-25%	5%	?
CCCCOC(=O)c1ccc(Nc2ncnc3c2cnn3-c2cccc(C)c2)cc1	nt	-9%	nt	-19%	1.0%	nt	nt	12%[46.1 µM]
COc1ccc(Br)cc1C1CC(=O)N2CN(Cc3ccccc3)CSC2=C1C#N (stereo not given)	-2%	-7%	6%	32µM*	?	-1%	11µM*	nt
O=C(O/N=C(\c1ccccc1)c1ccccn1)c1cccc2ccccc12	12%	-2%	-8%	5%	-8.1%	-87%	-66%	14%
COc1ccc(-c2cc(C(C)=O)c(C)n2CCC(=O)Nc2cc(C)ccc2OC)cc1	nt	-17%	nt	?	-4.8%	nt	nt	?
O=C(CN1C(=O)NC2(CCCC2)C1=O)Nc1ccc(OC(F)(F)F)cc1	-15%[46.1 µM]	8%	0%	nt	nt	0%	6%	nt
COc1cc2ccccc2cc1C(=O)N/N=C/c1cccnc1	nt	-4%	0%	nt	nt	-9%	-35%	nt
CC1CCc2c(sc(NC(=O)COc3ccccc3)c2C(=O)Nc2ccccc2Cl)C1 (stereo not given)	nt	-11%	nt	12%	-2.0%	nt	nt	10%[46.1 µM]
Cc1cc(C)c(S(=O)(=O)Nc2ccc3[nH]c(=O)[nH]c3c2)c(C)c1	?	-21%	-5%	nt	nt	0%	nt	?
Cc1ccsc1C(=O)N1CCCC(CCC(=O)NCc2ccccc2F)C1 (stereo not given)	-28%	29%	-4%	nt	nt	0%	0%	-28%
CNc1oc(-c2ccccc2)nc1C#N	-10%	37%[activator]	-6%	30%	-9.1%	-8%	-6%	6%
COCCNC(=O)c1c(NC(=O)c2ccco2)n(Cc2ccccc2)c2nc3ccccc3nc12	-20%	-7%	-3%	?	-5.9%	-2%	-44%	?
Cc1cccn2cc(-c3c[nH]c4ccccc34)nc12	nt	17%	24%	nt	nt	-3%	7%	nt
O=C(Cn1cnc2ccccc2c1=O)NCCC(=O)Nc1ccccc1C(F)(F)F	0%[46.1 µM]	-6%	-8%	nt	nt	0%	9%	-10%
O=S(=O)(c1ccc2nc(Nc3cccc(F)c3)ccc2c1)N1CCCC1	nt	-6%	nt	-29%	-17%	nt	nt	?
CC(=O)Nc1ccc(S(=O)(=O)N2CCCN(S(=O)(=O)c3ccc(C)cc3)CC2)cc1	?	?	-7%	?	-0.9%	-9%	-6%	-7%
COc1ccc2[nH]c(=O)c(CN(C(=O)c3cccnc3)c3ccccc3OC)cc2c1	-16%	nt	2%	-4%	-6.5%	3%	-20%	-9%
CCOC(=O)C1CCN(C(=O)Cc2c(C(=O)O)n(CC)c3ccccc23)CC1	-14%	nt	-16%	1%	7.5%	-3%	15%	20%
Cc1ccc(CNC(=O)CSc2ncc3c(n2)-c2cc(Cl)ccc2N(C)S3(=O)=O)cc1	nt	-19%	nt	0%	3.4%	nt	nt	-6%[46.1 µM]
NS(=O)(=O)c1ccc(CCNC(=O)CN2CCN(c3cccc(Cl)c3)CC2)cc1	?	?	10%	4%	-1.4%	7%	-2%	-18%
N#Cc1ccsc1NC(=O)CN1CCN(c2ccccn2)CC1	15%	-15%	-7%	-8%	0.2%	10%	2%	7%
O=C(NCC1COCCO1)c1ccc(OC2CCN(CCc3ccccc3)CC2)cc1 (stereo not given)	-20%	0%	20%	nt	nt	-1%	-3%	1%
COc1ccc2c(c1)CCc1c(C(=O)Nc3c(C)nn(Cc4ccc(C)cc4)c3C)noc1-2	?	?	nt	-12%	-4.8%	nt	nt	-23%[46.1 µM]
CCOC(=O)C1=C(C)OC(N)=C(C#N)C1c1ccc(O)c(OC)c1 (stereo not given)	-9%	0%	-12%	1%	-0.6%	-1%	6%	-1%
CCc1ccc(C(C(=O)NC2CCCC2)N(C(=O)/C=C/C(=O)Nc2cc(C)on2)c2ccccc2C)cc1 (stereo not given)	12%	26%	-12%	10%	-5.4%	2%	17%	2%
COc1ccc(CCNC(=O)Cn2nc(-c3ccc(Cl)cc3)ccc2=O)cc1OC	nt	-28%	nt	?	0.5%	nt	nt	15%[46.1 µM]
CCCN(C(=O)c1cc2ccc3cccnc3c2[nH]1)c1ccc(F)cc1	nt	23%	nt	7%	-6.9%	nt	nt	?
COc1ccccc1NC(=O)Cn1c(=O)n(-c2ccccc2Cl)c(=O)c2sc3ccccc3c21	-13%[46.1 µM]	?	nt	?	-3.3%	nt	nt	-13%[46.1 µM]
CCn1cc(C=C2C(=O)N(C)C(=O)N(C)C2=O)c2ccccc21	4%[46.1 µM]	-25%	-18%	nt	nt	2%	5%	4%[46.1 µM]
CCCn1nc(C(=O)OCC(=O)Nc2ncc(Cl)c(C)c2Cl)c2ccccc2c1=O	?	-13%	6%	8%	-4.5%	12%	-6%	11%
CN(C)CCOC(=O)COc1ccc(Cl)cc1	?	-12%&-4%	8%[18.4 µM]	-7%&-2%&-10%	-4.0%&-1.9%&4.3%	nt	-1%	?
CCOc1ccc(NC(=S)N(CCCN2CCOCC2)Cc2cn(C)c3ccccc23)cc1	?	4%	-6%	1%	1.6%	27%	10%	-13%
Cc1ccc(-c2nc3ccccc3s2)cc1NC(=S)NC(=O)c1cccc2ccccc12	?	49%[activator]	-6%	6.3µM*	-4.3%	14%	?	-6%
O=C(Nc1ccccc1F)c1ccco1	2%	nt	5%	3%	-1.9%	-7%	7%	0%
COc1cc(C(=O)NCc2ccc3c(c2)OCO3)c([N+](=O)[O-])cc1OC	nt	3%	7%	nt	nt	0%	2%	nt
CC(C)Cc1nnc(NC(=O)c2cc(-c3ccccc3)nc3ccccc23)s1	3%	9%	10%	-26%	-5.0%	9%	?	-12%
CCOC(=O)Cc1c(C)nc(Cc2ccc(OC(C)C)cc2)[nH]c1=O	-1%&-1%	-10%	-9%	nt	nt	11%	nt	?
Cc1cccc(C)c1Nc1nnc(SCC(=O)NCc2cccs2)s1	9%	-2%	nt	-6%	-1.1%	10%	-9%	19%
CCc1cc(=O)oc2cc(C)cc(OC(C)C(=O)O)c12 (stereo not given)	-1%	-21%	13%	13%	7.4%	?	?	?
COC(=O)Cn1c(CN2CCOCC2)nc2c1c(=O)n(C)c(=O)n2C	nt	-24%	4%	nt	nt	?	0%	nt
C/C(=N\NC(N)=O)C1(C)CCCCC1	16%	-16%	6%	-5%	2.1%	-9%	5%	5%
O=C(NC(=S)Nc1ccccc1Cl)c1cncc(Br)c1	12%	10%	-3%	nt	nt	-7%	-7%	17%
O=C(COC(=O)COc1ccc2ccccc2c1)NCC(F)(F)F	-14%[46.1 µM]	0%	3%	nt	nt	-9%	0%	20%[46.1 µM]
CCOCCc1nn2c(=O)cc(COC(=O)CNC(=O)c3cccc(C)c3)nc2s1	nt	-8%	nt	15%	-6.1%	nt	nt	2%[46.1 µM]
CCN1CCN(C2CCN(C(C)=O)CC2)CC1	-4%	nt	nt	8%	2.0%	0%	-9%	nt
O=C(NCC12CC3CC(C1)CC(CNC(=O)N1CCCC1)(C3)C2)N1CCCC1	-1%	-18%	11%	4%	-0.2%	0%	-4%	1%
CC(=O)NCCc1ccc(S(=O)(=O)NC2OC(=O)c3ccccc32)cc1 (stereo not given)	0%	18%	26%	-3%	1.3%	1%	8%	-7%
Cn1c(CNC(=O)c2ccco2)nnc1SCC(=O)c1ccc(F)cc1	5%[46.1 µM]	-9%	8%	nt	nt	?	-1%	8%
CC(=O)Nc1ccc2c(COC(=O)[C@@H](NS(=O)(=O)c3ccc(C)cc3)C(C)C)cc(=O)oc2c1	?	13%	-7%	nt	nt	-1%	nt	?
Cc1c(C#N)c2ccccc2n1CC(=O)NCC1CCCO1 (stereo not given)	1%	7%	2%	5%	1.0%	6%	8%	-4%
Cc1ccc2c(c1)N(C(=O)CSc1nncn1C)C(C)(C)c1ssc(=S)c1-2	?	0%	-6%	?	-11%	-3%	7%	?
COc1cnc(N(C)C)nc1Sc1ccc(Cl)cc1	26%	-6%	-26%	3%	-3.1%	3%	-46%	15%
COc1ccc(NC(NC(=O)c2cccnc2)C(Cl)(Cl)Cl)cc1 (stereo not given)	?	21%	6%	nt	nt	-1%	3%	-8%[46.1 µM]
Cc1nn(CCCC(=O)NCc2ccco2)c(=O)c2nn(-c3ccccc3)c(C)c12	nt	-21%	-2%	nt	nt	2%	-6%	nt
CCOc1ccc(-c2nc(C#N)c(NCC3CCCO3)o2)cc1 (stereo not given)	-13%	23%	-3%[3.69 µM]	-1%	-15%	-7%	-78%	-19%
Going on with the list.
SMILES	MARV entry inh	2A StopGo	RE007 growth inh	Cruzain noTriton	Cruzain Triton	SARS PLpro yeast	NS1 function inh	LASV entry inh
Cc1cccc(C)c1NC(=O)C(C)Sc1nnc(C)n1CC1CCCO1 (stereo not given)	11%[46.1 µM]	-4%	-1%	nt	nt	nt	11%	18%
COc1ccccc1-c1nc(C#N)c(N2CCC(C(N)=O)CC2)o1	23%	6%	5%	18%	-8.9%	-9%	-1%	4%
COc1cc(-c2noc(-c3ccc(NCc4cccnc4)c([N+](=O)[O-])c3)n2)cc(OC)c1OC	-3%[46.1 µM]	?	nt	?	-11%	nt	nt	-3%[46.1 µM]
Cc1nn(C)cc1C(C)NCc1c(C(=O)N2CCCCCCC2)nc2ccc(Cl)cn12 (stereo not given)	nt	-15%	-11%	nt	nt	0%	-5%	nt
O=C1C(=O)N(CCCN2CCOCC2)C(c2cccs2)/C1=C(/O)c1ccc2c(c1)OCO2 (stereo not given)	nt	nt	nt	-5%	-2.0%	14%	-2%	nt
